RanGTP-Impb inh: inhibitors of RanGTP-importin-beta interaction, primary screen, biochemical, FRET, CFP-Ran, YFP-importin-beta, homogeneous | Ran GTPase (GTP-bound) - importin-beta complex | 1.1% of 300,000 active | inhibition, % (concentration not given with the values) | cell-free CFP-Ran/YFP-importin-beta FRET ratio;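 active = most replicates above 15%; inconclusive = exactly half above 15%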;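 also: 0% = DMSO wells and 100% = Ran loaded with GDP instead of GTP; wells of about 40 µL received 100 nL stock; the first replicate is given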
HNF4A DNA FP: change in binding of human HNF4A to DNA, primary screen, biochemical, fluorescence polarization, FITC-DNA | 0.3% of 360,000 active | AID 1224865, 2016 | 1 h | activity change, % at 10 µM | Hepatocyte nuclear factor 4-alpha (Homo sapiens), P41235; in the data active = activity change above about 30%, passing the limit was not always enough;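 also: controls were the assay level and a saturating level of protein; the project sought stronger binding though the title names inhibitors; some compounds called inactive have numbers as strong as hits; positive values seem to mean higher polarization but the record does not say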
Target sequence (P41235 whole entry, looked up): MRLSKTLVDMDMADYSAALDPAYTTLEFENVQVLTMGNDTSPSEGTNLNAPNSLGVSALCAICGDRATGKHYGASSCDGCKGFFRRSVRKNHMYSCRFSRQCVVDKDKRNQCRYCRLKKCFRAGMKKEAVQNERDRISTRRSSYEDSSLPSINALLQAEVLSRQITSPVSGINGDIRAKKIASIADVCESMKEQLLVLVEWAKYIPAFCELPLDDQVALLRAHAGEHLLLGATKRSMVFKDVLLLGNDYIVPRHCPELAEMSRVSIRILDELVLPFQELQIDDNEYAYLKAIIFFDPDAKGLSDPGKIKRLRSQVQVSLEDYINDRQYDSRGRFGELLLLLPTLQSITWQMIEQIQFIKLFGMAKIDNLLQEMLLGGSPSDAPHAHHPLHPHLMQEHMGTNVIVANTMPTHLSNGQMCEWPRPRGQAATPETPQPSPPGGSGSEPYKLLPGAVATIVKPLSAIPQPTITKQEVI
LANA-H2A inh: blockers of LANA interaction with H2A/H2B – biochemical, FP readout, HTS, primary screen. Protein LANA1 (Human herpesvirus 8 type P (isolate GK18)), Q9QR71. cell-free LANA-H2A/H2B peptide, fluorescence polarization. inhibition, % (no concentration beside the values). 0.6% of 320,000 active; in the data active = inhibition mostly above about 10%, no sharp cut-off; inactive = mostly below about 6.7%;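 also: stock transfer was 7.5 nL into about 10 µL; 0% = median of vehicle wells and 100% = median of positive control wells; one replicate is shown; the record names a cut of 25% in any replicate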
Vif TR-FRET: inhibitors of Vif binding to APOBEC3G peptide, primary screen, biochemical, TR-FRET, GST-Vif 1-94, biotin-A3G peptide, dose response retest (AID 1117319); Virion infectivity factor (Human immunodeficiency virus type 1 group M subtype B (isolate …; TR-FRET GST-Vif / biotin-A3G peptide binding; higher % means a stronger effect; test concentration not given here; strong numbers were not always called active; inhibition, %, or IC50 in µM where a hit was titrated; 0.57% of 260,000 active;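 active = above the screen mean plus three standard deviations and confirmed in dose response; inconclusive = results disagree or hit not tested in dose response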;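 also: Vif residues 1-94 fused to GST binding biotinylated APOBEC3G peptide 110-148; 0% = full assay without inhibitor and 100% = GST in place of GST-Vif; retest series ran down from 100 µM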
Calb FLC: C. albicans growth inhibition with fluconazole, primary screen, CaCi-2 strain, Alamar Blue fluorescence. C. albicans CaCi-2 (fluconazole-resistant clinical isolate) + fluconazole, 48 h. growth inhibition, % (concentration not given with the values). 0.57% of 300,000 active. AID 1979, 2009;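 active = most replicates above 75%; inconclusive = exactly half above 75%; inactive = most below 75%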;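 also: all wells also contain fluconazole at 8 µg/ml as a sub-toxic cotreatment; 0% = median of DMSO wells and 100% = median of geldanamycin control wells; wells of about 8 µL received 7.5 nL stock; the first replicate is given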
Beta2AR agonist: beta2AR agonists driving receptor internalization, primary screen, cell-based, FAP fluorogen, flow cytometry; Am2.2-beta2AR cells; reference of the scale not given here; response, % (concentration not given with the values); 0.43% of 340,000 active; AID 504454, 2011;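 active = response above a set limit, near 3 SD of response in nonfluorescent compounds, cut at about 42% in these data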;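 also: stock transfer was 100 nL into about 11 µL; a reference agonist was the positive control; negative values mostly stem from fluorescent compounds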
Target sequence (P07550 whole entry, looked up): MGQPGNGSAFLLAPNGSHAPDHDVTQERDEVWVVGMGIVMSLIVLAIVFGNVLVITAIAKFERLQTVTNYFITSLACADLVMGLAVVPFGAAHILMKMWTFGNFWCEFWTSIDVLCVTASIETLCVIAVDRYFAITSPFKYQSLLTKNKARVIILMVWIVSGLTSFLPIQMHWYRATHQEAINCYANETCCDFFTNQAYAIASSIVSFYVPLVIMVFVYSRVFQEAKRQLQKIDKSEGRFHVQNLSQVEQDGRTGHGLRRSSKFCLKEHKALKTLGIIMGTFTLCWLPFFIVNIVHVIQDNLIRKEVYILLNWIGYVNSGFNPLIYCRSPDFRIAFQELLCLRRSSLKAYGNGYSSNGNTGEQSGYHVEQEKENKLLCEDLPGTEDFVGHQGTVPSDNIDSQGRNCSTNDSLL
ALR H2O2 inh: inhibitors of human ALR sulfhydryl oxidase, primary screen, biochemical, H2O2 detection, HRP-luminol luminescence, single point | AID 485317, 2010 | purified ALR, DTT oxidation | FAD-linked sulfhydryl oxidase ALR (Homo sapiens), P55789 | 3.8% of 290,000 active | inhibition, % (concentration not given with the values);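 active = mean and each replicate at 75% or more; inconclusive = only one of the two met; inactive = neither met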;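 also: stock transfer was 7.5 nL into about 7.5 µL; 0% = neutral wells and 100% = wells with inactivated enzyme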
Target sequence (P55789 whole entry, looked up): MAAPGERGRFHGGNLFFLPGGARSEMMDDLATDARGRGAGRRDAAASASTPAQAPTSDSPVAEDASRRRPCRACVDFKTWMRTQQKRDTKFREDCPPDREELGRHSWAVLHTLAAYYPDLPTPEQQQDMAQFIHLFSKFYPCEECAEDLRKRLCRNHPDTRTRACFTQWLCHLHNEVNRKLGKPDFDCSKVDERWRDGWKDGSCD
Starred values were filed as active, the others as inactive; ? = inconclusive; . = not tested or not shown.

Results follow in this order: RanGTP-Impb inh	HNF4A DNA FP	LANA-H2A inh	Vif TR-FRET	Calb FLC	Beta2AR agonist	ALR H2O2 inh
> Cc1cc(NC(=O)CCCn2nc([N+](=O)[O-])c(Cl)c2C)no1
→ 8.6	0.7	5.3	3%	0	5	-4
> N#CCOc1nc(N2CCCC2)nc(N2CCCC2)n1
→ -0.2	1.6	0.4	3%	-6	-7	3
> Cc1nc2ccccc2n1CC(O)COC1CCCCC1 (centres undefined)
→ -2.4	0.1	-1.5	0%	-21	3	-6
> O=C(Nc1ccccc1N1CCN(C(=O)c2ccc(Cl)cc2)CC1)c1ccc(Br)cc1
→ 1.7	3.6	2.5	4%	14	-6	1
> COc1ccc(-n2nc(C(=O)NCC(=O)N3CCCC3)c3ccccc3c2=O)cc1Cl
→ 3.9	0.6	-0.2	.	33	-16	7
> Nc1ccccc1-c1ccc(Cl)cc1
→ .	1.1	.	-4%	.	-5	.
> CCOC(=O)N1c2ccccc2Sc2ccccc21
→ -1.1	-1.5	5.2	.	?	7	-9
> Cc1ccc(C)c(NC(=O)CCCCCCCCCCC2COCCO2)c1 (centres undefined)
→ -2.6	1.1	0.0	.	11	3	.
> O=C(NCc1ccco1)c1cccc(Nc2nc3ccc(Br)cc3[nH]2)c1
→ -12	-2.8	8.8	32%	4	-7	28
> CC(C)CC(=O)N1CCN(C(=O)c2ccc(F)cc2)CC1
→ -0.3	0.3	16*	-3%	7	-8	-6
> Cc1cccc(NC(=O)c2cnc3scc(C)n3c2=O)c1
→ -1.1	1.9	-0.5	-1%	2	-7	35
> CC[C@@]1(C(=O)OC)N[C@H](CN(C)C(=O)c2ccccc2)[C@@H]2C(=O)N(C)C(=O)[C@@H]21
→ .	-0.4	.	2%	.	6	.
> O=C1c2ccccc2NC(c2ccccc2O)N1c1ccc(F)cc1 (centres undefined)
→ -0.6	2.1	0.8	-3%	0	4	1
> Cc1ccc(CNC(=O)CN(C(=O)C2(C)CC(=O)N=C3C=CC=CN32)c2ccc(F)cc2)cc1 (centres undefined)
→ -1.6	1.5	1.5	.	-2	-9	3
> CCC(C)Nc1nc2ccccc2n2c(C)nnc12 (centres undefined)
→ -1.7	0.4	9.2	-9%	0	-2	-6
> CC1(C(=O)OCC(=O)Nc2ncc(Cl)cc2Cl)CC1(Cl)Cl (centres undefined)
→ .	-7.6	.	12%	.	7	.
> O=Cc1sc(Nc2ccccc2)nc1Cl
→ 12	37*	-1.0	-12%	-15	-60	30
> CN1CCN(c2c(/C=N/O)c3ccccc3n2C)CC1
→ 0.1	2.4	1.2	2%	-1	12	93*
> Cc1ccc(C(=O)NCCNc2ccc([N+](=O)[O-])cc2C(F)(F)F)cc1
→ -2.9	-0.7	-3.2	.	-34	-9	.
> O=C(CNc1ccccc1F)Nc1cccc2ccccc12
→ 0.9	3.7	1.5	.	-2	4	56
> COCCNC(=O)CCCN1C(=O)c2ccccc2Sc2ncccc21
→ 3.6	-2.3	-0.3	0%	5	-6	-3
> CCO[C@@H]1OC(C(=O)N2CCN(Cc3ccccc3)CC2)=C[C@H](c2csc3ccccc23)[C@H]1CCCO
→ ?	3.1	4.4	3%	0	-4	-6
> COc1ccc(Cl)cc1NC(=O)Nc1cc(C)on1
→ 4.4	-0.5	4.2	-2%	2	-6	4
> O=C(C1COc2ccccc2O1)N1CCN(S(=O)(=O)c2ccccc2)CC1 (centres undefined)
→ -0.3	0.6	1.6	.	11	2	5
> Cn1c(=O)[nH]c(=O)c2c1nc(N1CCOCC1)n2CC(O)COc1ccccc1 (centres undefined)
→ 5.2	-2.4	-2.0	?	0	-17	-2
> O=S1(=O)CCC(NC(=S)N2CCCCCC2)C1 (centres undefined)
→ 3.7	0.8	1.2	.	2	2	-23
> Cc1ccc(/C(N)=N/OC(=O)c2ccc(F)cc2)cc1
→ -5.2	-3.8	-4.1	0%	-12	-11	0
> NS(=O)(=O)c1ccc(CCNCC(=O)NCc2ccccc2Cl)cc1
→ 2.0	1.7	-2.4	-3%	1	13	.
> CC1SC(C)C(=O)N(CC(=O)Nc2ccc3c(c2)OCO3)C1=O (centres undefined)
→ .	-2.7	-2.0	21%	.	-5	-28
> COC(=O)c1ccc(NC(=O)c2ccccc2)o1
→ 2.7	-3.3	-1.2	?	-1	-1	36
> COCCCNC(=S)NC1CC2CCC(C1)N2Cc1ccccc1 (centres undefined)
→ 0.5	1.3	1.8	.	1	-4	4
> CSc1cccc(NC(=S)N2CCCN(Cc3ccccc3F)C2)c1
→ 6.0	2.9	-2.8	?	-1	-1	-7
> CCc1cccc(CC)c1NC(=O)COC(=O)c1ccccc1-c1nc2ccccc2s1
→ 0.0	1.2	-1.1	-2%	2	14	-18
> Cc1ccc(C)c(NC(=O)COC(=O)c2ccc[n+]([O-])c2)c1
→ .	-0.7	4.6	-3%	.	-1	-3
> CC(NC(=O)C(C)N1C(=O)c2cccc([N+](=O)[O-])c2C1=O)c1ccccc1 (centres undefined)
→ 1.6	-0.2	-2.3	.	-12	0	2
> O=C(C1CC=CCC1)N1CCN(S(=O)(=O)c2ccc(F)cc2)CC1 (centres undefined)
→ .	-3.8	.	-4%	.	-2	.
> CCC(=O)N=c1n(C)c2ccccc2n1CCOc1ccccc1
→ -2.3	-1.8	1.0	-6%	5	-3	-16
> Nc1cccc(-c2nc3ccccc3[nH]2)c1
→ ?	1.4	1.9	12%	37	-4	-113
> CCCC(CCC)=NNC(=O)CN(Cc1ccccc1)S(=O)(=O)c1ccccc1
→ -1.3	0.4	2.7	-3%	-2	-1	8
> Cc1ccccc1-c1nc2sc(-c3ccccc3)cc2c(=O)o1
→ 2.2	1.0	0.3	-8%	?	-2	-8
> CC(Sc1ncc(C(F)(F)F)cc1Cl)C(=O)NC(N)=O (centres undefined)
→ -0.7	5.0	6.0	-2%	20	3	-19
> CCC(=O)Nc1nnc(S(=O)(=O)N(CC)c2ccc(OC)cc2)s1
→ 0.9	-2.6	1.7	-2%	-5	9	.
> COC(=O)c1cccc(NC(=O)NC(=O)c2ccc(Cl)cc2)c1
→ 9.9	3.3	3.7	3%	3	-1	1
> O=C(NC1CCCCC1)N1CCNCC1
→ 3.7	0.4	-5.5	.	-6	-1	14
> O=C(Nc1ccc2ccccc2c1)N1CCN(c2ncccc2C(F)(F)F)CC1
→ -3.1	1.0	-1.2	7%	16	3	.
> CC(Oc1ccccc1)C(=O)N=C1SC2CS(=O)(=O)CC2N1c1ccc(F)cc1 (centres undefined)
→ 7.3	1.3	-2.2	6%	-6	0	-5
> CNc1oc(-c2ccccc2)nc1S(=O)(=O)c1ccc(C)cc1
→ 4.6	3.3	-8.1	.	45	-4	-8
> Cn1cc(/C=N\O)nc2c(=O)n(-c3ccccc3)c(=O)nc1-2
→ 33*	-3.0	-4.5	-2%	38	0	.
> Clc1ccc(Cl)c(-c2ccc(/C=N/c3ncn[nH]3)o2)c1
→ 3.3	0.1	-9.8	-3%	16	4	3
> Cc1cc(C)n2nc(SCCOc3ccccc3)nc2n1
→ -3.4	-5.2	-1.0	0%	-26	-20	-7
> COc1ccc(C(=O)NCCc2nnc3ccc(SCC(=O)NCCc4ccc(OC)c(OC)c4)nn23)cc1
→ 6.4	-5.1	-0.8	6%	-5	-7	8
> CS(=O)(=O)Nc1ccccc1C(=O)NCCSCc1ccccc1
→ -2.5	1.1	1.4	-9%	19	3	-10
> CCN(CC)c1ccc(C=NN2CCCCCC2)cc1
→ .	4.1	.	-7%	.	14	.
> CCOc1ccc(C(=O)NC(=S)NCc2cccnc2)cc1[N+](=O)[O-]
→ 2.2	-1.1	1.6	-4%	-10	-20	0
> CCC1=C(c2ccc(C)cc2)S(=O)(=O)N=C1N1CCC(C(=O)NCCCN2CCCCC2C)CC1 (centres undefined)
→ 1.5	1.8	-0.8	.	-4	-2	-50
> COc1ccc([N+](=O)[O-])cc1NC(=O)C(C)OC(=O)Cn1[nH]c(=O)c2ccccc2c1=O (centres undefined)
→ -1.9	1.7	-1.9	-2%	.	1	-3
> CC1(C)CCCC2=C1CC1C(=O)N(Cc3cccnc3)C(=O)C1C2 (centres undefined)
→ 3.3	1.4	0.1	-7%	14	-4	-9
> Cc1cccc(NC(=O)CSCC(=O)NCc2ccco2)c1
→ -2.6	-1.6	-1.2	.	8	1	-14
> COCCCNC(=O)c1cc(Sc2nnc(C)s2)nc2ccccc12
→ -0.2	-1.6	1.4	0%	-1	-10	3
> COc1nc2c(c(-c3cc(Br)cs3)c1C#N)Cc1ccccc1-2
→ -2.5	-3.3	2.5	.	-13	-4	.

Remaining list, next part
Results follow in this order: RanGTP-Impb inh	HNF4A DNA FP	LANA-H2A inh	Vif TR-FRET	Calb FLC	Beta2AR agonist	ALR H2O2 inh
> COc1ccc(CC(=O)Nc2nc(-c3ccc(F)c(F)c3)cs2)cc1
→ 4.2	0.4	-2.1	1%	-5	-3	-3
> CSCC[C@H](N)C(=O)N1CCC(C(=O)N[C@H](C)C(=O)NC(C)c2ccccc2)CC1 (some centres undefined)
→ ?	-0.3	-3.4	.	-7	2	6
> O=C(O)/C=C/C(=O)NNc1ccc([N+](=O)[O-])cc1
→ 3.4	-0.3	-0.8	4%	7	6	3
> Cc1ccccc1NC(=S)N(CCN(C)C)C(C)c1ccccn1 (centres undefined)
→ -1.3	4.3	2.2	0%	-12	12	5
> CC(=O)Nc1ccc(S(=O)(=O)NCc2nc(-c3ccccc3C)no2)cc1
→ 3.2	0.3	1.3	.	-21	3	.
> COc1ccc(CC(=O)OCC(=O)c2ccc(F)cc2)cc1
→ .	-2.2	3.4	-15%	.	0	-4
> c1ccc(-n2nnnc2Sc2n[nH]c(-c3ccncc3)n2)cc1
→ 3.3	2.8	4.2	4%	-1	-4	5
> CC(=O)C(C)Oc1ncn(-c2ccccc2)n1 (centres undefined)
→ -5.2	0.9	1.5	-2%	3	-3	-6
> CC(=O)Cc1nsc(NC(=O)c2ccc(-c3ccc(Cl)cc3Cl)o2)n1
→ 0.3	3.2	1.7	-4%	1	-2	16
> Cc1cc(NC(=O)c2ccc(C)c([N+](=O)[O-])c2)no1
→ -5.8	4.9	-1.1	.	7	-6	-2
> Cc1ccc(NC(=O)Cn2ncc3c([nH]c4ccccc43)c2=O)cc1Cl
→ 3.9	2.6	0.3	.	-3	-10	0
> COc1ccc(CNC(=S)Nc2ccc(-c3ccccc3)cc2)cc1
→ 3.5	2.5	-0.9	-15%	10	0	95*
> Cc1ccc(CNc2ccccc2C(=O)O)s1
→ -0.9	1.3	4.0	.	-1	1	25
> Cc1nn(-c2ccccc2)c(C)c1N
→ -1.8	2.4	0.1	.	-3	-2	-8
> CCN1CCN(C(=O)/C(C#N)=C/c2ccc(OC(F)F)cc2)CC1
→ 2.6	1.6	-1.1	.	?	8	-5
> COc1cccc(OC)c1C(=O)N1CCN(Cc2ccccc2C)CC1
→ ?	-0.7	-3.7	?	8	-4	0
> COc1ccc(S(=O)(=O)NC2CCCC2)c(OC)c1
→ .	10	5.9	.	.	2	-6
> COc1ccc(C(O)(CCN2CCOCC2)c2ccccc2)cc1 (centres undefined)
→ -1.4	0.0	-1.1	1%	-9	6	-4
> CN(CCNC(=O)C1CC(=O)N(c2ccc(F)c(Cl)c2)C1)Cc1ccccc1 (centres undefined)
→ -4.4	0.0	15	?	-8	1	6
